Source: PubChem
KCNQ2 inh: KCNQ2 potassium channel inhibitors, primary screen, cell-based, CHO-K1, FluxOR thallium flux, B-score (AID 2156); 310,000 tested, 1.1% active; B-score at 10 µM; 20 min; hits give low values; only compounds with negative scores are shown here; some inactives read as strong as hits;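 active means fluorescence ratio B-score at most minus 3 library SDs, with starting brightness B-score within 2 library SDs, cut at about -5.5 in these data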
Target sequence (O88943 whole entry, looked up): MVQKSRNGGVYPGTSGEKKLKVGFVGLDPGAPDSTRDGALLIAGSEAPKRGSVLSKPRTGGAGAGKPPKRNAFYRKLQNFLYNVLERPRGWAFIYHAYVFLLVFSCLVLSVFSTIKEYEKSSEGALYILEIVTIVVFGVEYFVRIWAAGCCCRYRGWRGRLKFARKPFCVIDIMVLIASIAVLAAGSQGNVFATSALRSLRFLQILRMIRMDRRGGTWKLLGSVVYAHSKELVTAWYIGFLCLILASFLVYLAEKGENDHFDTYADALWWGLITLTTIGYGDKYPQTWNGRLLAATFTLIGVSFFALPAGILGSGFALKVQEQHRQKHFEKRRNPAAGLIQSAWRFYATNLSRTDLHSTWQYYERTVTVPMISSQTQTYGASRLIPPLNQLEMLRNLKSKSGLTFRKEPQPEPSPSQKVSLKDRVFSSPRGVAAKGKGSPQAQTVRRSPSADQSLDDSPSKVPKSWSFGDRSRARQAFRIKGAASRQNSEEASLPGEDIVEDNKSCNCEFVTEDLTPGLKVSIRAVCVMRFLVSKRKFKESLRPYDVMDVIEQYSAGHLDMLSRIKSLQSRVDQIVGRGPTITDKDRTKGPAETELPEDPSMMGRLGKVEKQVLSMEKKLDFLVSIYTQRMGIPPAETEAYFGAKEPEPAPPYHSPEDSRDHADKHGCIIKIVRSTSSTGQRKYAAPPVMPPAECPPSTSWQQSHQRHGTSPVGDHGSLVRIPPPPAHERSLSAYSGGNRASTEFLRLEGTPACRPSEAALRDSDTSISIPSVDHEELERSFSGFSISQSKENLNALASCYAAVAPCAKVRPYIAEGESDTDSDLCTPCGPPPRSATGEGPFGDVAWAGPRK
KCNQ2 inh baseline: second read-out of KCNQ2 inh, no call of its own (marks repeat the call); B-score; measured here: initial fluorescence intensity artifact check;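 brightness before thallium and not channel activity; 0 = typical well and far values either way flag optical interference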
Numbers without * were called inactive; i = inactive. Some of the compounds tested. The share of hits here may be higher or lower than overall.

Structure | KCNQ2 inh | KCNQ2 inh baseline
COc1cc(CCN2C(=O)c3cccc4cccc(c34)C2=O)c(S(=O)(=O)N2CCCCCC2)cc1OC | i | 0.3
COc1ccc(CCNC(=O)C2CCC(C(C)(C)C)CC2)cc1OC (stereo not drawn) | i | 0.3
COCCn1c(N)c(N(Cc2ccccc2)C(=O)C2CCCCC2)c(=O)[nH]c1=O | i | 0.4
COc1ccc(N(C)C(=O)c2cc3c(s2)-c2ccccc2S(=O)(=O)C3)cc1 | i | -0.78
O=C1CCC(=O)N1CCCCCc1nc(-c2ccccc2)no1 | i | 1.9
O=C(CNC(=O)Cc1cccc2ccccc12)NCc1ccc(F)cc1 | i | -1.9
O=C(/C=C/c1c(F)cccc1Cl)NCCCN1CCOCC1 | i | 0.37
Cc1ccc2nc(-c3cccnc3)c(Nc3ccccc3C)n2c1 | i | -0.53
CCn1c(SCC(=O)N2CCCc3ccccc32)nc2c1c(=O)n(C)c(=O)n2C | i | -0.14
N/C(=N\OC(=O)c1cccc([N+](=O)[O-])c1)c1ccccn1 | i | 1.1
O=C(Cc1cccs1)NC1CCCC1 | i | 1.4
COc1cc(C(C)=O)ccc1OCCN1CCC(Cc2ccccc2)CC1 | i | -0.33
COc1ccc(NC(=O)CN(C)CC(=O)Nc2ccc(N3CCOCC3)cc2)c([N+](=O)[O-])c1 | i | -0.16
CC(C)(C)OC(=O)N1CCC[C@H]1c1nnc(SC/C=C/c2ccccc2)o1 | i | -0.31
Cc1ccc(C(=O)C(C)OC(=O)Cc2c[nH]c3ccccc23)cc1 (stereo not drawn) | i | -0.52
N#CCc1ccc(OC(=O)c2cnccc2C(F)(F)F)cc1 | i | 0.39
Cc1cc(C)nc(Nc2ncc(O)n2-c2ccc(Br)cc2)n1 | i | -0.38
CCC(=O)Nc1ccc(C(=O)Nc2cccnc2)cc1 | i | 0.86
Cc1nccn1C[C@@H]1CCc2c(c3ccccc3n2C)C1=O | i | 0.59
Cc1nnc(NC(=O)c2ccccc2NC(=O)c2ccccc2)s1 | i | -0.7
COc1nnc(-c2ccc(N3CCOCC3)c(NC(=O)c3ccccc3)c2)c2ccccc12 | i | 0.82
CC(=O)c1cccc(Nc2nc3ccccc3n3cnnc23)c1 | i | 2.4
Cc1ccc(Nc2nc3ccccc3s2)c(C)c1 | i | -0.78
O=C(Nc1ccc2nc(SCc3ccc(Cl)cc3)sc2c1)c1ccccc1C(=O)N1CCOCC1 | i | 1
O=C(COc1ccc2ccc(=O)oc2c1)Nc1ccc(CN2CCOCC2)cc1 | i | -0.19

Continuation.
Structure | KCNQ2 inh | KCNQ2 inh baseline
O=C(CCc1c[nH]c2ccccc12)NCc1cccc(Cl)c1 | i | -0.76
COc1ccccc1NC(=O)Cc1noc(CSc2cccc[n+]2[O-])n1 | i | 0.02
COc1cccc(NC(=O)Cn2c3ccccc3c3nc4n(c(=O)c32)CCS4)c1 | i | -0.24
CC[N+]1(CC)CC2CCC(C)(C1)C2(C)C (stereo not drawn) | i | 3.4
O=C(OCC#CCSc1nnc(-c2cccc3ccccc23)o1)c1ccco1 | i | 0.05
COc1cccc(C2CC(C(F)(F)F)n3nc(C(=O)NCc4cccnc4)cc3N2)c1 (stereo not drawn) | i | -1.3
CCC1Oc2ccccc2N(CC(=O)NCc2cccs2)C1=O (stereo not drawn) | i | 0.69
CC(=O)c1cccc(NC(=O)CSc2ccc(-c3sc(C)nc3C)nn2)c1 | i | -0.23
Cc1cc(C(=O)Cn2cc(C(F)(F)F)ccc2=O)c(C)n1-c1ccccc1 | i | 0.78
Cc1ccc(S(=O)(=O)NC(=O)Nn2c(C)nnc2C)cc1 | i | 1
CCN(CC(=O)Nc1ccccc1C(F)(F)F)C(=O)c1oc2ccc(OC)cc2c1C | -6* | 0.01*
CCOC(=O)N/N=C/c1cc(OC)c(O)c(OC)c1 | i | -0.5
CC(=O)Oc1ccc(/C=C2/CCc3ccccc3C2=O)cc1 | i | 0.5
COCCCn1c(SCC(=O)Nc2ccc(NC(=O)c3ccco3)c(OC)c2)nc2ccccc2c1=O | i | -0.75
O=C(CN1CCCc2ccccc21)NC(=O)NCc1ccccc1 | i | 1.3
CC(C)CCn1c(=O)c2sccc2n2c(CCCC(=O)N3CCN(c4ccccn4)CC3)nnc12 | i | 2.6
O=c1c2ccccc2ncn1-c1ccccc1C(F)(F)F | i | -1.6
COC(=O)c1ccc(C2c3c(n[nH]c3C)C(=O)N2c2ccc(C)cc2)cc1 (stereo not drawn) | i | -1.3
CN(C)C(=S)Nc1cccc(C(F)(F)F)c1 | i | -0.14
Cc1nc2cc(Cl)ccc2n1CCO | i | 0.83
COc1ccc(-c2noc(C3CCCN(C(=O)c4cccc(C)c4)C3)n2)cc1 (stereo not drawn) | i | 0.06
CC(=O)n1cc([C@@H]2C=C(C(=O)N3CCOCC3)O[C@H](OCc3ccc(CO)cc3)C2)c2ccccc21 | i | -0.72
Cc1ccc(-c2ccc(=O)n(Cc3ccc(F)cc3)n2)cc1 | i | 1.4
O=C(COc1ccc(Cl)cc1)NCCCNC(=O)c1ccncc1 | i | -1.1
c1ccc(-c2ccccc2OCCOCCN2CCc3ccccc3C2)cc1 | i | -0.06

Reprinted from the part before: four compounds, followed by the next part.
Structure | KCNQ2 inh | KCNQ2 inh baseline
CC(=O)n1cc([C@@H]2C=C(C(=O)N3CCOCC3)O[C@H](OCc3ccc(CO)cc3)C2)c2ccccc21 | i | -0.72
Cc1ccc(-c2ccc(=O)n(Cc3ccc(F)cc3)n2)cc1 | i | 1.4
O=C(COc1ccc(Cl)cc1)NCCCNC(=O)c1ccncc1 | i | -1.1
c1ccc(-c2ccccc2OCCOCCN2CCc3ccccc3C2)cc1 | i | -0.06
O=C(Cc1c2ccccc2nc2ccccc12)c1ccccc1 | i | -0.16
Cc1cccc(Nc2nc(C)cc(C)c2C#N)c1 | i | 1.7
CC(=O)c1cc(CN2C(=O)c3ccccc3C2=O)cs1 | i | 0.13
C1CCN(c2nc(N3CCCC3)nc(N3CCNCC3)n2)C1 | i | -1.5
COc1ccc(-n2c(CNc3ccc(C)cc3)nnc2SCc2ccccc2)cc1 | i | -0.06
Cc1ccc2cc(C#N)c(N3CCN(C(=O)c4ccccc4)CC3)nc2c1 | i | 0.18
Cc1ccc(O)c(-c2cc(-c3ccccc3[N+](=O)[O-])[nH]n2)c1 | i | -1.9
Cc1c(C(=O)N2CCN(c3ccc(F)cc3)CC2)sc2ncnc(N3CCN(c4ccccn4)CC3)c12 | i | -0.86
Cc1cc(O)c(C(=O)c2ccccc2C(=O)O)cc1C | i | 1.5
CCC(=O)C1CCCN(C(=O)CCc2nnc(C3(c4ccc(Cl)cc4)CCC3)o2)C1 (stereo not drawn) | i | 2.4
CCC(=O)OCC(=O)Nc1ccc(OC)cc1[N+](=O)[O-] | i | -0.01
CCOc1ccc(/C=C/C(=O)Nc2cccc(C(C)=O)c2)cc1 | i | -0.41
Cc1cc(C)c2c(n1)SCC(=O)N2CC(=O)Nc1ccccc1Cl | i | -0.01
O=c1[nH]c(CN2CCN(c3ncccn3)CC2)nc2c(Br)cc(Br)cc12 | i | -0.32
CCO/C(C)=N/n1c2nc3ccccc3nc2c2c(=O)n(C3CCCC3)c(C)nc21 | i | 1.5
Cc1cc(Br)ccc1NC(=O)c1sc2ncn(CC(=O)N3CCN(c4ccccn4)CC3)c(=O)c2c1C | i | -1
CCCCCN(C(=O)CCC(=O)OC(C)C(=O)NCc1ccccc1)c1c(N)n(CCCC)c(=O)[nH]c1=O (stereo not drawn) | i | 0.43
O=C(CN1CCN(S(=O)(=O)c2ccc(Cl)cc2)CC1)Nc1ccc(N2CCOCC2)cc1 | i | 0.02
CC(=O)N1c2ccc(S(=O)(=O)NCCC(=O)Nc3cccc(Cl)c3)cc2CC1C (stereo not drawn) | i | -1.6
C=CC1CN(CC(=O)OC)S(=O)(=O)c2ccccc21 (stereo not drawn) | i | 0.12
COc1ccc(CNC(=O)C2CCN(S(=O)(=O)c3ccc4c(c3)C(C)(C)C(=O)N4C)CC2)cc1 | i | -1.1
O=[N+]([O-])c1ccccc1-c1cc(-c2ccccc2O)n[nH]1 | i | 0.13
CCCC12CN3CC(C)(CN(C1)C3c1ccc3c(c1)OCO3)C2=O (stereo not drawn) | i | -2.7
Cn1c(=O)c(C(=O)NNC(=O)c2ccccc2Cl)c(O)c2ccccc21 | i | 4.3
COc1ccc(C(=O)N2CCCC(Nc3ccc(F)c(F)c3)C2)c(OC)n1 (stereo not drawn) | i | 1.5

(next part)
SMILES | KCNQ2 inh | KCNQ2 inh baseline
Cc1cccc(CC2CC(=O)N(C3CCCCC3)C2=O)c1 (stereo not drawn) | i | 1.1
C/C(CC1CC(COCCC(C)C)OC1=O)=N\NC(N)=S (stereo not drawn) | i | 1
CC(c1ccccc1)C1OCC(C[N+]2(C)CCCCC2)O1 (stereo not drawn) | i | 0.04
COc1ccc(S(=O)(=O)Nc2ccc(S(=O)(=O)N3CCCC3)cc2)cc1 | i | 0.01
Cc1ccc(S(=O)(=O)CC(=O)N2CC(C)OC(C)C2)cc1 (stereo not drawn) | i | -0.87
CNCc1ccccc1OCc1ccccc1F | i | -0.24
Cc1cc(C)c(S(=O)(=O)c2ccccc2)c(OC(=O)c2c(Cl)cc(Cl)cc2Cl)n1 | i | 0.28
CN(Cc1nc(-c2ccncc2)no1)S(=O)(=O)c1ccc(Br)cc1 | i | 1.2
CCN(CC)S(=O)(=O)c1ccc(NN)nc1 | i | 1.3
Cc1ccc(S(=O)(=O)Nc2cc(C(F)(F)F)ccc2N2CCOCC2)cc1 | i | -0.23
COc1ccc(CNCCC(c2ccccc2)c2ccc3c(c2)OCO3)cc1 (stereo not drawn) | i | 0.43
Cc1ccc(-n2c(N)c(C(N)=O)sc2=S)cc1 | i | -2.1

Reformatted with two lines to a compound: 5 of the compounds above
Below each compound: KCNQ2 inh | KCNQ2 inh baseline
- Cc1cc(C)c(S(=O)(=O)c2ccccc2)c(OC(=O)c2c(Cl)cc(Cl)cc2Cl)n1
    i | 0.28
- CN(Cc1nc(-c2ccncc2)no1)S(=O)(=O)c1ccc(Br)cc1
    i | 1.2
- CCN(CC)S(=O)(=O)c1ccc(NN)nc1
    i | 1.3
- Cc1ccc(S(=O)(=O)Nc2cc(C(F)(F)F)ccc2N2CCOCC2)cc1
    i | -0.23
- COc1ccc(CNCCC(c2ccccc2)c2ccc3c(c2)OCO3)cc1 (stereo not drawn)
    i | 0.43

An excerpt of the results above:
SMILES | KCNQ2 inh | KCNQ2 inh baseline
COc1cc(CCN2C(=O)c3cccc4cccc(c34)C2=O)c(S(=O)(=O)N2CCCCCC2)cc1OC | i | 0.3
COc1ccc(CCNC(=O)C2CCC(C(C)(C)C)CC2)cc1OC (stereo not drawn) | i | 0.3

Continued.
SMILES | KCNQ2 inh | KCNQ2 inh baseline
Cc1c(-n2c(SC(C)C(=O)NC(N)=O)nc3ccccc3c2=O)c(=O)n(-c2ccccc2)n1C (stereo not drawn) | i | -0.21
Cn1nnnc1SCC(=O)Nc1nn(-c2ccccc2)nc1C(N)=O | i | 0.73
COc1cccc(CN2CCCN(S(=O)(=O)c3ccc(Br)cc3)CC2)c1 | i | -1.1
COc1cccc2c1Oc1ncccc1N(C(=O)CCC(=O)NCc1cccc(C)c1)C2 | i | 0.26
CN1CCc2c(OCc3ccc(F)cc3)cccc2C1=O | i | -0.35
Cc1ccc(NC(=O)CN2CCOCC2)cc1C | i | -2.7
Cc1ccc(NC(=O)CCc2nc3sc4c(c3c(=O)[nH]2)CCCC4)nc1 | i | 0.12
Cc1cccc2c(N=O)c(O)[nH]c12 | i | 1.8
CCC1(c2ccccc2)NC(=O)N(CC(=O)NCCN2C(=O)S/C(=C\c3cccnc3)C2=O)C1=O (stereo not drawn) | i | -1.2
CC(=O)Oc1ccc(N2C(=O)C3C(C2=O)C2C=CC3C23CC3)cc1[N+](=O)[O-] (stereo not drawn) | i | 1.3
COc1ccc(-n2ncc3c2CC(C)(C)CC3NC(=O)CCn2nc(C)cc2C)cc1 (stereo not drawn) | i | -0.33
Cc1ccc2cc(CCNC(=O)c3cccc([N+](=O)[O-])c3)c(=O)[nH]c2c1 | i | 0.28

Other structures follow.
SMILES | KCNQ2 inh | KCNQ2 inh baseline
CN(C(=O)COc1ccccc1C(=O)NCCOc1ccccc1)c1ccccc1 | i | -1.4
COc1ccc(OCCSc2nnc(Cc3cccc4ccccc34)n2N)cc1 | i | 0.53
O=C(O)c1ccc(/C=N/NC(=O)c2ccc3c(c2)OCCO3)cc1 | i | 1.6
CC(=O)c1ccc(N2CCN(C(=O)c3cc4c(-c5ccccc5F)nn(C)c4s3)CC2)cc1 | i | 1.9
O=C1CSC(c2ccccn2)N1c1ccc2ccccc2c1 (stereo not drawn) | i | -0.34
Cc1cc(C)c(OCCCn2ccnc2)c(C)c1 | i | 2.9
CC(C)NC(=S)N=Nc1c(O)[nH]c2ccc([N+](=O)[O-])cc12 | i | -1.2
COc1cc(/C=N/NC(=O)c2sc3nc(C)cc(C)c3c2N)ccc1O | i | -0.73
OC(COc1ccc2c(c1)OCO2)CN1CCCCC1 (stereo not drawn) | i | 0.06
Cc1cc2ccccc2cc1CN1CCOCC1 | i | 0.55
COc1ccc(/C=C/C(=O)Nc2nonc2NC(C)=O)cc1 | i | -1.3
Cc1ccc(N(C(=O)C2CCC(=O)N2)C2(C(=O)NC3CCCC3)CCCCC2)cc1 (stereo not drawn) | i | 0.42

Other records:
SMILES | KCNQ2 inh | KCNQ2 inh baseline
O=C(c1ccc2c(c1)OCO2)N1CCCC(c2ccccc2)C1 (stereo not drawn) | i | -0.32
O=C(c1ccco1)N1CCN(Cc2nc3ccc([N+](=O)[O-])cc3c(=O)n2-c2ccccc2F)CC1 | i | -0.08
FC(F)(F)c1cc(CCN2C(=S)NC[C@@H]2Cc2ccccc2)cc(C(F)(F)F)c1 | i | -0.43
CS(=O)(=O)C1=NSC2=NC(=O)/C(=C\c3ccc(OC(=O)c4ccco4)c(Br)c3)C(=N)N21 | i | 2.5
Cc1sc2cc3c(c(C(=O)c4ccccc4)[n+]2c1C)-c1cccc2cccc-3c12 | -8.2* | -6.1*
COC(=O)c1ccccc1NC(=O)CSc1nc(O)c(-c2ccccc2)c(=O)[nH]1 | i | -0.33
O=C(O)CCCn1nc(-c2ccccc2)c2ccccc21 | i | -0.46
